eIF4H FP inh: inhibitors of RNA binding by human eIF4H; AID 2012; inhibition, % at 35 µM; 290,000 compounds, 0.94% hits; eIF4H fluorescence polarization binding assay;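 active = 50% or more with normal probe brightness, or confirmed in later tests; inconclusive = above 50% with abnormal brightness, or retests that disagree; inactive = below 50% or failed in later tests; about a fifth of its hits are not listed in these tables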;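 also: calls also rest on retests at 20 µM and on dose response follow-up; 0% = protein and probe with vehicle and 100% = probe without protein; strong numbers were not always called active; many hits fall short of the cut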
PABP polyA inh: PABP-poly(A) binding inhibition; P11940; PABP-poly(A) RNA binding, fluorescence polarization; inhibition, % at 35 µM; 290,000 compounds, 1% hits; AID 2014;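 active = 50% or more with normal probe brightness, or confirmed in later tests; inconclusive = above 50% with abnormal brightness, or retests that disagree; inactive = below 50% or failed in later tests; about a fifth of its hits are not listed in these tables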;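 also: calls also rest on retests at 20 µM and on dose response follow-up; controls were probe without protein and protein plus probe with vehicle; some compounds called inactive have numbers as strong as hits; many hits fall short of the cut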
Rce1 inhib: inhibitors of yeast Ras-converting enzyme. 290,000 compounds, 0.27% hits. yeast membranes, quenched prenylated peptide cleavage fluorescence. calls only. AID 2563;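 active = fall in fluorescence gain of 50% or more versus controls, with final raw signal at or below 3038400; inconclusive = same 50% fall but final raw signal above 3038400; inactive = fall in fluorescence gain under 50%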;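 also: plate controls were neutral control wells for no effect and wells lacking membranes for full effect; tested at 10 µM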
Target sequence (Q03530 whole entry, looked up): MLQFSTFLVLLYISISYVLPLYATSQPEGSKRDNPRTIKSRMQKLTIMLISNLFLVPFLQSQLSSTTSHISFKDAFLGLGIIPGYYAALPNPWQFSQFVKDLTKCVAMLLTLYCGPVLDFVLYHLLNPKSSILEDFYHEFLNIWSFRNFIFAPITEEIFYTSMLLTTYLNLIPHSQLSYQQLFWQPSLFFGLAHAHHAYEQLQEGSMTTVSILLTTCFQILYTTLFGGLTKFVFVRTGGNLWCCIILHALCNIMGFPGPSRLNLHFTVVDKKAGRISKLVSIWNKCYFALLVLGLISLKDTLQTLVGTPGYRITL
CSC inhib: blocks cancer stem cells; cancer stem cell-like cells viability, luminescence; inhibition, % at 7.5 µM; 300,000 compounds, 1.1% hits; AID 2717;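 active = mean at 75% or more and at least half the replicates too; inconclusive = mean and replicates disagree; tested in HMLE shEcad cells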;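 also: 0% = median of negative and 100% = median of positive control wells; the first replicate is given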
Yeast UUG start: alters start codon recognition fidelity in yeast; S. cerevisiae UUG-firefly luciferase reporter, luminescence/redox ratio; activity score, % at 18.7 µM; 350,000 compounds, 0.13% hits; AID 602363;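 active = replicate mean at a twofold rise or more, about +100% in these data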;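 also: firefly luciferase made from a UUG start codon reports start codon fidelity; reporter light over untreated wells divided by growth signal over untreated wells; some hits fall short of that in this replicate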
HIV Env fusion: HIV envelope-mediated fusion inhibition. HeLa-JRFL Env/CEM21 cell fusion, luciferase. inhibition, % at 12.3 µM. 360,000 compounds, 1.1% hits. AID 651610;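 active = mean replicate inhibition score of at least 50 and every replicate individually at or above 50; inconclusive = only one of the two criteria met; inactive = mean below 50 and not all replicates reaching 50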;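 also: 0% = plate neutral controls and 100% = maraviroc near 300 nM; one replicate is shown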
MT1-MMP act inh: inhibitors of human MT1-MMP activation; P50281; HT1080 RFP-PRO-GFP cells, GFP/RFP ratio fluorescence, overnight; percent of plate control window, DMSO zero; GFP/RFP ratio change, % at 20 µM; 360,000 compounds, 0.061% hits; AID 651647;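 active = GFP/RFP ratio change of at least 30% with cell ATP level not reduced by more than half and red fluorescence within 50% of control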; also: strong numbers were not always called active
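Assay system: HT1080 cells carrying an RFP-PRO-GFP reporter | Dosing: Single dose of 20 µM compound, 1% DMSO final | Incubation: Cells overnight before dosing, compound overnight, 37 °C, 5% CO2 | Evaluation: GFP/RFP fluorescence ratio | Control set: DMSO and RFP-L50D-GFP cell wells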
eIF4H FP inh retest: also measured in eIF4H FP inh; calls as there; inhibition, %; compound at 20 µM; confirmation average;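 mean of two retest wells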
PABP polyA inh retest: recorded beside PABP polyA inh, whose call it bears; inhibition, %; compound at 20 µM; confirmation repeats;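 mean of two retest wells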
MT1-MMP act inh RFP: further read-out of MT1-MMP act inh, marked with its call; RFP signal change, %; measured here: RFP expression control read;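 0 = vehicle wells; hits needed this value within 50% of zero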
The depositor's hits bear a star; i = inactive; ? = inconclusive; . = not tested or not shown; + = active, no number. A portion of the library; the hit share may differ from the screen's.

SMILES | eIF4H FP inh | PABP polyA inh | Rce1 inhib | CSC inhib | Yeast UUG start | HIV Env fusion | MT1-MMP act inh | MT1-MMP act inh RFP | others
Cc1cc(NC(=O)Cc2ccccc2)nc2c1c(=O)oc1ccccc12 | 0 | -13 | i | 44 | -5 | 8 | 1 | 0
N#CC1=C(N)Oc2ccc3ccccc3c2C1c1cccnc1 (centres undefined) | 5 | -5 | . | . | . | 5 | -5 | -12
Cc1ccc(/C(O)=C/C(=O)C(=O)NC23CC4CC(CC(C4)C2)C3)cc1 | 19 | 8 | i | 25 | 1 | -35 | -7 | 6
COC(=O)c1sc(=S)sc1C(=O)OC | 8 | 2 | i | -2 | -10 | . | 11 | 3
Cc1[nH]c2ccccc2c1CCNC(=O)c1ccc2c(c1[N+](=O)[O-])C(=O)c1ccccc1C2=O | 4 | 20 | i | 24 | -16 | . | 41 | 52
Cc1cc(C)n2c(SCc3nnc(-c4cccs4)o3)nnc2n1 | 10 | -33 | i | -10 | . | . | 4 | 10
CCC(CO)Oc1cc(NCc2ccc(C(C)(C)C)cc2)c2ncn(C(C)C)c2c1 (centres undefined) | . | . | . | . | -7 | -1 | -3 | -7
COCCNC(=O)C1(C)CCCN(C(=O)c2c(-c3ccccc3)noc2C)C1 (centres undefined) | . | . | . | . | -15 | 0 | -6 | 3
C=CCn1nnnc1-c1cccc(Cl)c1 | 14 | 15 | i | 11 | . | 6 | 3 | 4
Cc1cc(NC(C)C)n2c(nc3ccccc32)c1C#N | 5 | 2 | i | -3 | -18 | 5 | 1 | -10
Cc1ccc(NC(=O)CCS(=O)(=O)c2ccccc2)cc1S(=O)(=O)N1CCOCC1 | -6 | -6 | i | -2 | . | -4 | 5 | -1
CSc1ccc(Cn2c(C)c(C(=O)NCc3ccc4c(c3)OCCO4)sc2=O)cc1 | . | . | . | . | -16 | -5 | 1 | -16
Cc1cc(O)c(C(=O)/C=C/c2ccc(Cl)cc2)c(=O)o1 | 6 | -6 | i | 23 | -13 | -52 | -21 | 2
N#CCCn1cc(C(CC(=O)c2ccc(Br)cc2)C(=O)O)c2ccccc21 (centres undefined) | 7 | -7 | i | -1 | 5 | . | -1 | 4
CC(=O)c1cccc(NC(=O)CCCOc2ccc(C)cc2)c1 | 6 | 0 | i | 2 | -12 | 10 | -4 | -1
CC[C@]12c3[nH]c4cc(-c5ccco5)ccc4c3CCN1C(=O)[C@@H](CC(=O)NC/C=C(\C)CCC=C(C)C)C[C@@H]2C(=O)N1CCN(C(=O)C2CC2)CC1 | . | . | . | . | -13 | 0 | -3 | -6
CC(C)N1CCc2c(sc(NC(=O)c3cc(-c4cccs4)nc4ccccc34)c2C(N)=O)C1 | 120 | 10 | i | ? | -17 | . | -51 | -5 | eIF4H FP inh retest=28;PABP polyA inh retest=38
CCC(C)c1ccc(S(=O)(=O)N2CCN(C(=O)CN3C(=O)NC(C)(C4CC4)C3=O)CC2)cc1 (centres undefined) | . | . | . | . | 16 | 1 | 2 | 4
COc1ccc(NC(=O)c2cc(=O)[nH]c3ccccc23)cc1 | -6 | -3 | i | -2 | . | 30 | 2 | 5
CCN(c1cccc(C)c1)S(=O)(=O)c1ccc2c(c1)NC(=O)CS2 | -4 | -6 | i | -22 | 17 | 7 | -1 | -6
Cc1ccc2c(c1)C(=O)C(=O)N2c1ccc(C(F)(F)F)cc1 | . | . | . | 3 | -6 | -35 | 3 | 7
Cc1sc(NC(=O)CCl)c(C(=O)c2ccccc2)c1C | -6 | 0 | i | 15 | -16 | 8 | -4 | -6
CCOC(=O)CCCN1CC(O)=C(c2nc(-c3ccc(Cl)cc3)cs2)C1=N | -6 | -13 | i | -1 | . | 3 | 4 | 1
NNC(=O)c1c[nH]c2ccc(OCc3ccccc3)cc12 | . | . | i | -4 | . | -13 | 0 | 0
Cc1ccc(Nc2nc(-c3ccc(S(=O)(=O)N4CCOCC4)cc3)cs2)cc1Cl | -3 | -8 | + | 23 | -11 | . | -4 | -13
OC(CSc1ccccc1Cl)CN1CCN(c2ccccc2F)CC1 (centres undefined) | -11 | -6 | i | 3 | 10 | -35 | 5 | 1
CC(SCC(=O)Nc1ccc(S(=O)(=O)N2CCCCC2)cc1)C(=O)O (centres undefined) | -10 | 4 | i | 14 | -13 | . | -4 | 0
CC(C)CN(C(=O)CN(C)C(=O)Cc1ccc(Cl)cc1)c1c(N)n(CC(C)C)c(=O)[nH]c1=O | . | . | i | 3 | 8 | 0 | -4 | -2
COc1cc(C)c(CNc2cc(C)cc(C)c2)cc1C | -5 | -9 | i | -2 | -2 | . | 2 | 6
COc1ccc(/C=N/N2CCN(C3c4ccccc4-c4ccccc43)CC2)cc1OC | -16 | -10 | i | 40 | -23 | -2 | -4 | -1
CC(Cc1cccs1)NC(=O)Nc1cccc(Cl)c1 (centres undefined) | -3 | 3 | i | 9 | -9 | 4 | 0 | -4
Cc1cc(NC(=O)C2Oc3ccccc3OC2C)no1 (centres undefined) | -16 | 17 | i | -1 | . | 19 | -2 | 0
CCOc1ccc2nc(N3CCCC(C(=O)NCCCN4CCOCC4)C3)sc2c1 (centres undefined) | -3 | 9 | i | -4 | -2 | -24 | 2 | 3
CCN(CC)C(=O)CN(C#N)c1nc(NC(C)C)nc(NC(C)C)n1 | 2 | 9 | i | -1 | -11 | -26 | 4 | -3
Cc1ccc(S(=O)(=O)NCC(=O)OCC(=O)N2N=C(c3ccc(Cl)cc3)CC2c2ccco2)cc1C (centres undefined) | -2 | -4 | i | -18 | -12 | . | 8 | 10
CCOc1ccc(CSC(=N)N)cc1[N+](=O)[O-] | -6 | -13 | i | -4 | -21 | . | 8 | 6
CCc1cccc(NC(=O)CCc2nc3sc4c(c3c(=O)[nH]2)CCCC4)c1 | . | . | i | -11 | . | 10 | -3 | 1
COC(=O)c1ccc(Cn2nnc3c(=O)[nH]c(C4CCN(S(=O)(=O)c5cc(C)ccc5C)CC4)nc32)cc1 | 3 | 4 | i | . | -8 | -12 | 1 | -2
O=C(CCNS(=O)(=O)c1ccccc1C(F)(F)F)N1CCCCCCC1 | . | . | . | -8 | -19 | . | 3 | 1
CCOC(=O)CSc1snnc1-c1ccccc1 | 6 | 4 | i | -6 | . | . | 1 | 7
O=c1[nH]c(-c2ccccc2)c(-c2ccccc2)nc1[N+](=O)[O-] | 10 | 13 | i | 0 | . | 6 | 3 | 1
CCOC(=O)N1CCN(C(=O)CSc2nc3c([nH]c4ccccc43)c(=O)n2CCOC)CC1 | 8 | -2 | i | -11 | -6 | . | 1 | -4
CCOC(=O)C(Cc1ccccc1)NC(=O)CCc1nnc2ccc(N3CCCCC3)nn12 (centres undefined) | 1 | 15 | i | 2 | -7 | -6 | 3 | 10
Cc1ccc(NC(=O)c2cc(S(=O)(=O)N3CCOCC3)cn2C)c(C)c1 | -7 | -9 | i | -6 | -6 | -18 | 5 | -1
CCOC(=O)N1CCN(C(=O)COc2ccc([N+](=O)[O-])cc2)CC1 | -1 | -6 | i | -11 | . | 12 | 7 | 3
CN1C(=O)C(C)(C)c2cc(S(=O)(=O)NCC3CCC(C(=O)NCc4ccc(F)cc4)CC3)ccc21 (centres undefined) | -1 | -9 | i | -9 | 7 | -7 | 1 | -7
CCOC(=O)c1c(C)[nH]c(C(=O)OCC(=O)NCc2ccco2)c1C | . | . | . | . | -7 | -3 | -3 | -9
O=C(Cn1c(COc2ccccc2)nc2ccccc21)Nc1cc(Cl)c(Cl)cc1Cl | -3 | -4 | . | 15 | . | . | . | .
O=C(C1=NN[C@@H]2C(=O)N(c3cccc(C(F)(F)F)c3)C(=O)[C@H]12)C(c1ccccc1)c1ccccc1 | -6 | 49 | i | 13 | -22 | . | 0 | 1
CCCCN(C(=O)Nc1ccccc1)C1CCS(=O)(=O)C1 (centres undefined) | . | . | . | . | -9 | 11 | 4 | 9
CCn1cc(CN2CCC(C(=O)Nc3cccc(-c4cccc(F)c4)c3)CC2)cn1 | 7 | 3 | i | 0 | -11 | 4 | 1 | 2
CC1CN2C(c3ccc(Cl)cc3)=CSC2=N1 (centres undefined) | 2 | 6 | i | -8 | 5 | 5 | 6 | 4
CCOC(=O)C1CCCN(C(=O)c2cc3cc(Br)ccc3oc2=O)C1 (centres undefined) | 6 | 10 | i | . | . | -8 | -2 | -3
COCC(=O)NNC(=O)c1ccccc1OC | -9 | 3 | i | -35 | . | -14 | -1 | 3
Cc1cc(=O)oc2c1c(C)nn2-c1nn[nH]n1 | 13 | 71 | i | -12 | -14 | -45 | -8 | -2 | eIF4H FP inh retest=14;PABP polyA inh retest=2
COc1ccc(CCN2CC(C(=O)NCc3cccc4[nH]ccc34)CCC2=O)cc1 (centres undefined) | -10 | 1 | i | 8 | -5 | -9 | 1 | 0
Cc1cc(C)nc(Nc2ncc(O)n2-c2ccccc2)n1 | -10 | -7 | i | -1 | . | -10 | 10 | 2
CC(NC(=O)c1cc2c(s1)CCCC2)C(C)(C)C (centres undefined) | 2 | 4 | . | 8 | . | -10 | -3 | -3
Cc1ccc(NS(=O)(=O)c2ccc(OCC(=O)NCc3ccco3)cc2)cc1 | -7 | -18 | i | -7 | -9 | . | -13 | 0
O=C(Cc1ccccc1[N+](=O)[O-])OCC(=O)N1CCN(c2ccccc2)CC1 | . | . | i | . | . | 5 | -3 | 5

Following part.
SMILES | eIF4H FP inh | PABP polyA inh | Rce1 inhib | CSC inhib | Yeast UUG start | HIV Env fusion | MT1-MMP act inh | MT1-MMP act inh RFP | others
COc1ccc(OC)c(NC(=O)C2CCCCC2C(=O)O)c1 (centres undefined) | -12 | 0 | i | 1 | -17 | . | 1 | 0
CN(c1ccc(C(=O)O)cc1)S(=O)(=O)c1ccc(Cl)cc1 | -11 | -1 | i | -7 | -20 | . | 0 | 5
COc1cccc(NC(=O)CSc2nn3c(=O)c(C)nnc3s2)c1 | 2 | 14 | i | 2 | -9 | -14 | -1 | 3
CCOc1cc(-c2cc(-c3ccc(C)cc3)nc(N)c2C#N)ccc1O | 58* | 74* | i | 6 | 3 | -47 | -26 | -19
CCCCOC(=O)Nc1cccc(C(=O)OCC)c1 | -5 | -12 | i | 12 | -9 | . | -6 | -4
Cc1nn(Cc2ccccc2)c(=O)n1N(C)c1ncc(C(F)(F)F)cc1Cl | 3 | 6 | i | -8 | -9 | 2 | -4 | 1
COc1ccc(-c2cc(C(=O)N3CCN(c4ncccn4)CC3)c3ccccc3n2)cc1 | . | . | . | 14 | -8 | . | -2 | -5
CCCCNC(=O)C1CCCN(S(=O)(=O)c2ccc(-n3cnnn3)cc2)C1 (centres undefined) | 5 | -3 | i | . | -6 | . | 0 | -2
Cc1cccc(Oc2c(C=O)c3ccccc3n2C)c1 | 7 | -5 | i | 5 | -5 | . | -2 | -2
O=c1c(-c2ccco2)[n+]([O-])c2ccccc2n1OCc1ccccc1 | 14 | 32 | i | 2 | -11 | -278 | -29 | 0

Screening data from PubChem.
